Screening results: PubChem, National Center for Advancing Translational Sciences (NCATS)
VDR inh – inhibitors of human vitamin D receptor. Potency, µM, without a hit: max response, negative = inhibition, hits mostly inhibitors. AID 504847. actives 0.93% (n = 400,000). VDR-SRC2-3 peptide fluorescence polarization, 2 h. P11473; active means well fitted inhibition curve with a large enough effect; inconclusive means small, poorly fitted or top-dose-only effect, or another doubt; inactive means no such curve, though single readings can be large or run the other way; further: series mostly up to about 120 µM
Target sequence (P11473 whole entry, looked up): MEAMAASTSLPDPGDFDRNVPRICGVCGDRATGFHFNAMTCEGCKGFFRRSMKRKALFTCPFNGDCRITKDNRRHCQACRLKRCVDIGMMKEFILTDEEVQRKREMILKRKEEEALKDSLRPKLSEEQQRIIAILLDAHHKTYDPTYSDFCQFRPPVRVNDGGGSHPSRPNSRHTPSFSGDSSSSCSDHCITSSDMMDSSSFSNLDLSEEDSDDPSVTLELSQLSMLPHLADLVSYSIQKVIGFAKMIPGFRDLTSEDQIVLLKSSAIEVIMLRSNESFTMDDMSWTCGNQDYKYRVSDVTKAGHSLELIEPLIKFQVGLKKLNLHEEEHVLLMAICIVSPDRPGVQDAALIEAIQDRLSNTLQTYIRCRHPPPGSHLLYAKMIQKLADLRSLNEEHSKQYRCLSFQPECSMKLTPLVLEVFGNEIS
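Compounds are added to VDR with labelled SRC2-3 coactivator peptide and held 2 h at room temperature. Inhibition of the VDR–peptide interaction is then read as a change in fluorescence polarization.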
An asterisk follows results filed as active; ? = inconclusive; & = joins results of further samples; [ ] = remark or other dose. On the % scale 0 is the no-effect control and ±100 the full control effect; potency means the concentration at half of the fitted maximal effect.

VDR inh,Molecule
?,O=c1oc2ccccc2nc1/C=C(O)/C=C\c1ccccc1
6.8%,Cc1c(Cl)cccc1NC(=O)CCS(=O)(=O)c1ccc2c(c1)CC(=O)N2C
14.1%,Cc1cccc(CNS(=O)(=O)c2ccc3[nH]c(=O)ccc3c2)c1
7.0%,COCCn1c(-c2ccc(OC)cc2)c(-c2ccc(OC)cc2)oc1=O
4.5%,CCCn1c(SCc2nc(-c3cc(OC)ccc3OC)no2)nnc1-c1ccc(Cl)cc1
-5.1%,COC(=O)c1[nH]c2ccc(Cl)cc2c1NC(=O)CN1CCC(C(N)=O)CC1
9.1%,CCC(=O)NC(NC(=S)Nc1ccccc1Br)C(Cl)(Cl)Cl (centres undefined)
-4.5%,COc1ccc(CNC(=O)C2CCN(S(=O)(=O)c3c(C)n[nH]c3C)CC2)cc1
-11.4%,O=C(c1ccccc1)c1coc2ccc(O)c(CN3CCOCC3)c12
-13.5%,CC1CC(C)CN(S(=O)(=O)c2ccc(NC(=S)NC(=O)c3ccccc3)cc2)C1 (centres undefined)
3.7%,Cc1ccc(NC(=O)CSc2nnc(CNC(=O)c3ccco3)o2)cc1
7.2%,O=C(C[n+]1ccn(-c2ccccc2)c1)c1ccc([N+](=O)[O-])cc1
4.7%,O=[N+]([O-])c1ccc(CSc2nnc(Cc3ccccc3)o2)cc1
22.4%,O=C(O)C(c1ccccc1)C1(O)CCC1 (centres undefined)
?,Cc1ccc2nc(N3C(=O)C(O)=C(C(=O)c4ccco4)C3c3cccc(O)c3)sc2c1 (centres undefined)
-0.1%,O=S(=O)(Nc1ccc2c(c1)nc1n2CCN(Cc2ccccc2)C1)c1ccc(F)cc1
7.0%,C[C@H]1CN([C@@H](C)CO)C(=O)c2cccc(NC(=O)C3CC3)c2O[C@H]1CN(C)S(=O)(=O)c1cccs1
-3.8%,Cc1ccc(C)c(N(C(=O)CCC(=O)Nc2cc(C)on2)C(C(=O)NC2CCCC2)c2ccco2)c1 (centres undefined)
6.4%,CCOC(=O)c1ccc(NC(=O)CN2Cc3ccccc3C2=O)cc1
6.6%,CCSc1nnc(NC(=O)c2csc(C)c2)s1
20.3%,O=C(N/N=C/C1CCCCC1)c1cc(Cl)ccc1O
-21.3%,C/C(=N\Nc1ccc(C(F)(F)F)cn1)c1ccc(S(=O)(=O)NCc2ccco2)cc1
-1.7%,COc1ccc(CC2(CO)CCN(CC3=CC[C@H]4C[C@@H]3C4(C)C)CC2)cc1
15.0%,Cc1cc2oc(=O)sc2cc1NS(=O)(=O)c1cccc2cccnc12
-19.9%,CCCCN(CC(=O)NCc1ccc(Cl)cc1)S(=O)(=O)c1ccc2c(c1)OCCO2

Given with tabs: entries from further up.
canonical_smiles	VDR inh
O=C(O)C(c1ccccc1)C1(O)CCC1 (centres undefined)	22.4%
CCCn1c(SCc2nc(-c3cc(OC)ccc3OC)no2)nnc1-c1ccc(Cl)cc1	4.5%

A different layout for some results above:
canonical_smiles,VDR inh
O=C(C[n+]1ccn(-c2ccccc2)c1)c1ccc([N+](=O)[O-])cc1,7.2%
O=[N+]([O-])c1ccc(CSc2nnc(Cc3ccccc3)o2)cc1,4.7%
O=C(O)C(c1ccccc1)C1(O)CCC1 (centres undefined),22.4%

Other records
VDR inh,Molecule
0.7%,C/C(CC(=O)Nc1ccc(Cl)cn1)=N\NC(=O)Cc1cccs1
4.1%,COc1ccc(C(=O)Nc2nc(-c3cccs3)cs2)cc1
0.3%,CCC(C)(C)NC(=O)C(c1cccn1C)N(Cc1ccc(OC)cc1)C(=O)Cn1nnc2ccccc21 (centres undefined)
-4.2%,CC1CCc2c(sc(NC(=O)CSc3ncnc4c3cnn4-c3ccccc3Cl)c2C#N)C1 (centres undefined)
16.0%,O=C(NCc1ccccc1CN1CCOCC1)c1ccc(-n2cccn2)cc1
22.4µM*,CCN(CC)c1ccc(NC(=O)c2ccccc2Br)cc1S(=O)(=O)Nc1ccccc1OC
0.4%,NC(=O)c1ccc(C2SCC(=O)N2Cc2ccccc2)cc1 (centres undefined)
-13.4%,Cc1cc2c(cc1C)CSC(c1ccccc1OC(=O)C(C)C)SC2
?,CC(C)CC(=O)NC(NCC1CCCO1)C(Cl)(Cl)Cl (centres undefined)
0.6%,O=C(CN(C(=O)c1ccccc1Cl)N1C(=O)C2C3C=CC(C3)C2C1=O)c1cccs1 (centres undefined)
-11.6%,COc1cc(CN2CCN(c3ccccc3C)CC2)cc([N+](=O)[O-])c1O
1.4%,COc1ccc(NC(=O)c2ccccc2NC(=O)C2CC=CCC2C(=O)O)cc1 (centres undefined)
-16.6%,CCN(c1ccccc1)c1ncnc2c1cnn2-c1ccccc1
2.3%,O=C1CCC(C(=O)OCc2ccccc2)N1 (centres undefined)
25.6%,Nc1nc(-c2ccc([N+](=O)[O-])cc2)c(C(=O)Nc2ccc(Cl)cc2)s1
5.9%,CSc1ncc(Cl)c(C(=O)Nc2nnc(SC)s2)n1
9.4%,CC1CC(C#N)N(N(C)C)C1=C(C#N)C#N (centres undefined)
15.5%,Cc1[nH]c(=O)nc(SCc2ccc(Cl)c(Cl)c2)c1C#N
-0.3%,COc1cccc(CN(C(=O)c2cnccn2)C(C(=O)NC2CCCCC2)c2cc(OC)c(OC)c(OC)c2)c1 (centres undefined)
-6.7%,O=C(COn1nnc2ccc(Cl)cc21)Nc1ccc(F)cc1
-7.2%,O=C(NNC(=S)Nc1ccc(F)cc1)C1CC1c1ccc(Cl)cc1 (centres undefined)
-3.0%,c1ccc(-c2nnc(-c3ccccc3)c(-c3c[nH]c4ccccc34)n2)cc1
13.3%,COc1ccc2[nH]c(=O)c(CN(CCO)C(=O)NCc3ccccc3)cc2c1
7.5%,Cc1ccc(OC(C)C(=O)Nc2ncc(Cl)cc2Cl)c([N+](=O)[O-])n1 (centres undefined)
-13.2%,NC(=O)Cn1cc(/C=N\NS(=O)(=O)c2ccccc2)c2ccccc21

(further entries)
VDR inh,Molecule
-10.9%,COc1ccccc1N1CCN(C(=O)C2CC=CCC2C(=O)O)CC1 (centres undefined)
-20.5%,N#C/C(=C\c1cccc(F)c1)c1nc(-c2cc3c(ccc4ccccc43)oc2=O)cs1
-6.3%,O=C(NCCc1ccccc1)c1ccc(Cl)nc1
4.9%,Cc1occc1C(=O)NNC(=O)C1CC1
-4.4%,COc1ccc(-c2nc(SCC(=O)Nc3c(F)cccc3F)n[nH]2)cc1
9.1%,CC(C)C(=O)Nc1cc(=O)[nH]c2ncnn12
?,N=C1/C(=C/c2coc3ccccc3c2=O)C(=O)N=C2SC(c3ccco3)=NN12
3.2%,CCCCc1cc(=O)oc2cc(C)cc(OCc3nn[nH]n3)c12
-13.5%,O=C1CC(c2c(F)cccc2Cl)C2=C(COC2=O)N1 (centres undefined)
?,CC[C@H](C)[C@H](NC(=O)[C@H](CO)NC(=O)[C@H](C)NC(=O)[C@H](C)NC(=O)[C@H](CCC(N)=O)NC(=O)[C@H](CCCCN)NC(=O)[C@H](CCCN=C(N)N)NC(=O)[C@@H](N)CS)C(=O)N[C@@H](CCCCN)C(=O)N[C@H](C(=O)N[C@@H](C)C(=O)N[C@H](C(=O)N[C@@H](CO)C(=O)O)C(C)C)C(C)C
-9.1%,COc1cccc(CNn2cnnc2)c1OCc1ccc(F)cc1
-20.0%,COC(=O)c1sc(NC(=O)COc2cccc(C)c2)nc1C
-18.6%,CCOc1ccc(OCC)c(NC(=O)CN2CCN(CC(=O)NC(C)C)CC2)c1
-8.5%,O=C(O)c1cc(S(=O)(=O)NC23CC4CC(CC(C4)C2)C3)ccc1Cl
-13.9%&-5.3%&-13.6%&-2.3%,CCN(CC)CCNC(=O)c1ccc(NC(C)=O)cc1
6.2%,c1cncc(COC2CCCN(Cc3nc(-c4cccs4)no3)C2)c1 (centres undefined)
?,Cc1cnc(CNc2ncnc3ccc(-c4ccoc4)cc23)cn1
1.2%,Cc1noc(C)c1NC(=O)N(C)C[C@H]1Oc2c(NC(=O)Cc3ccccc3)cccc2C(=O)N([C@H](C)CO)C[C@@H]1C
-7.5%,Cc1ccc(S(=O)(=O)N(C)C)cc1NC(=O)CSc1nc2ncc(Cl)cc2[nH]1
-6.1%&2.4%,CCCNC(C)(C)COC(=O)c1ccccc1
-10.0%,FC(F)(F)C(F)(F)C(F)(F)C(F)(F)C(F)(F)C(F)(F)C(F)(F)C(F)(F)Br
3.8%,Cc1ccc(C(=O)NC(=O)CSc2ncccc2C(=O)O)cc1
12.7%,Cc1cc(C)cc(N2C(=O)N(CC(=O)c3ccc(Br)cc3)c3ccccc3S2(=O)=O)c1
13.8%,C/C(=C/CCC(C)(O)C1CC[C@@]2(C)[C@@H]3CC=C4[C@@H](CC[C@H](O[C@H]5O[C@@H](CO)[C@H](O)[C@@H](O)[C@@H]5O)C4(C)C)[C@]3(C)C(=O)C[C@]12C)CO[C@@H]1O[C@H](CO)[C@@H](O)[C@H](O)[C@H]1O (some centres undefined)
-7.9%,CCOC(=O)C1CCCN(C(=O)Cn2nc(C)n3nc(-c4ccccc4)cc3c2=O)C1 (centres undefined)

(listing goes on)
VDR inh,Molecule
-4.4%,COc1ccc2nc(Nc3nc4cc5c(cc4s3)OCO5)sc2c1
-5.8%,CC1(C)Cc2ccccc2-c2nc(-c3ccccc3)oc(=O)c21
-3.3%,Fc1ccc(Nc2nc(SCc3cccc(Cl)c3)nc3ccccc23)cc1
33.6%[activator],C#CCOCCOCCOCCNc1nc(N2CCN(C(=O)CCCCCCCCCCNC(=O)[C@H]([C@@H](C)CC)n3cc(CCCCCN)nn3)CC2)nc(N2CCN(C(=O)CCCCCCCCCCNC(=O)[C@@H]([C@H](C)O)n3cc(C)nn3)CC2)n1
-16.7%,Cc1cc(NC(=O)C2CCCN(S(=O)(=O)c3cccc4nsnc34)C2)ccc1Br (centres undefined)
-2.4%,COc1cc(C)ccc1OC(C)C(=O)Nc1ccc(N2CCCCC2)cc1 (centres undefined)
?,CCN(CC(=O)Nc1ccccc1C(F)(F)F)C(=O)c1ccc(N2CCCC2=O)cc1
6.5%,COC(=O)c1c(C)sc(-c2c(-c3ccc4c(c3)OCCO4)[nH]c3c2c(=O)n(C)c(=O)n3C)c1O
2.5%,COc1ccc(CN2CCNC(=O)C2CC(=O)NC2Cc3ccccc3C2)c(OC)c1 (centres undefined)
-3.1%,O=C(COC(=O)CCc1ccc(S(=O)(=O)N2CCOCC2)cc1)NC(=O)NC1CCCCC1
-3.8%,O=C(O)CCCC(=O)Nc1ccc(C(=O)NCc2cccnc2)cc1
-29.8%,COc1ccc(-c2nc(CN3CCC(C(=O)NCC4CCCO4)CC3)c(C)o2)cc1OC (centres undefined)
5.6%,COc1cc(/C=N/NC(=O)c2cccc([N+](=O)[O-])c2)ccc1OCc1ccccc1
0.7%,COc1cccc(CNC(=O)CNS(=O)(=O)c2ccc3nc(C)sc3c2)c1
-1.7%,Cc1ccc(C(=O)/C=C/c2c[nH]c3ccccc23)cc1
2.9%,Cn1c(C(=O)O)c(C=O)c2ccccc21
-9.2%,NNc1nccc(Nc2ccccc2C(=O)O)n1
3.8%,Cc1cc(C(=O)O)c2ccccc2n1
-6.1%,CN(c1cccc(NC(=O)CN(c2cccc(Cl)c2)S(=O)(=O)c2ccc(Cl)cc2)c1)S(C)(=O)=O
-2.3%,Cn1c(SCC(=O)N2CCCC2)nnc1-c1cccs1
?,O=C(/C=C/c1ccc([N+](=O)[O-])cc1)Oc1ccc(/C=N/NC(=O)c2ccncc2)cc1
-14.3%,O=C(NCC12CC3CC(CC(C3)C1)C2)c1nn2c(c1Cl)NC(c1ccco1)CC2C(F)(F)F (centres undefined)
4.8%,COc1ccc(N2CCN(C(=O)c3ccc(Br)o3)CC2)cc1
11.2%,S=C(Nc1ccc(Cl)cc1)N1CCN(C2CCCCC2)CC1
-6.4%,CCN1C(=O)c2ccccc2S(=O)(=O)c2ccc(C(=O)N3CCOCC3)cc21

With a hit mark in VDR inh, of those listed so far:
VDR inh,Molecule
22.4µM*,CCN(CC)c1ccc(NC(=O)c2ccccc2Br)cc1S(=O)(=O)Nc1ccccc1OC

(next part)
VDR inh,Molecule
13.4%,CCn1c(SCC(=O)Nc2nncs2)nnc1-c1ccco1
-9.5%,COc1ccccc1C(=O)Nc1ccnn1C1CCN(C/C=C/c2ccccc2)CC1
-17.3%,CCN(CC)S(=O)(=O)c1cccc(C(=O)N/N=C(\C)c2ccc(O)cc2O)c1
-17.8%,COC(=O)C(NS(=O)(=O)c1ccc(NC(C)=O)cc1)C(C)C (centres undefined)
10.3%,CC(NC(=O)CCCN1C(=O)c2ccccc2C1=O)c1ccc2c(c1)CCCC2 (centres undefined)
0.9%,O=C(CSc1ccccc1)N1CCC(N2CCC(C(=O)N3CCCC3)CC2)CC1
-16.5%,CCN(C(=O)COC(=O)c1ccc[nH]c1=O)c1cccc2ccccc12
13.0%,O=C(NCc1ccc2c(c1)OCO2)C1CC(=O)N(c2ccc(O)cc2)C1 (centres undefined)
-10.3%,O=C(NCc1ccc(Cl)cc1)C1CCCCN1S(=O)(=O)c1ccccc1 (centres undefined)
11.5%,N=c1c(S(=O)(=O)c2ccc(Br)cc2)cc2c(=O)n3ccccc3nc2n1Cc1ccccc1
-11.2%,C/C(=N\Nc1nc(N2CCOCC2)nc(N2CCOCC2)n1)c1cccc([N+](=O)[O-])c1
0.2%,COc1ccc(-n2c(SC(C)C(=O)N3CCOCC3)nc3ccccc3c2=O)cc1 (centres undefined)
-1.0%,Cc1cccn2c(=O)c3cc(C#N)c(=NC(=O)c4ccco4)n(Cc4ccco4)c3nc12
25.6%,Cc1ccc(NC(=O)CN2CCN(S(=O)(=O)c3ccc(C(C)C)cc3)CC2)cc1F
-19.9%,NC(=O)Nc1ccccc1C(=O)NCCc1ccccc1
-10.5%,CC(=O)Nc1c(C(=O)O)oc2ccccc12

Not all compounds are listed, so the mix of outcomes need not match the whole.
